Screening data from PubChem BioAssay.
Abs 340nm: compounds absorbing at 340 nm | AID 708 | compound absorbance at 340 nm, fold over control | 65,000 tested, under 10 active | fold change at 10 µM;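 active = at 10 µM dose, initial 340 nm absorbance at least 2 fold that of control wells; inactive = change under 2 fold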;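 also: initial absorbance extrapolated from kinetic A340 decline of NADH oxidation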
ROCK2 inh: inhibitors of human Rho kinase 2. actives 0.35% (n = 60,000). purified ROCK2, Kinase-Glo ATP depletion luminescence. inhibition, % at 6 µM. O75116;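 active = inhibition above the screen-wide mean inhibition plus 3 SD, cut at about 18% in these data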;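 also: plate controls were DMSO wells for no effect and Y-27632 control wells after no-enzyme background subtraction for full effect; many of its hits are not listed in these tables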
PKA inh: inhibitors of human protein kinase A; P17612; PKA Kemptide phosphorylation, Kinase-Glo ATP luminescence; inhibition, % at 6 µM; actives 0.1% (n = 65,000); AID 524;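 active = inhibition above the screen-wide mean inhibition plus 3 SD, cut at about 21% in these data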; also: many of its hits are not listed in these tables
DUSP1 inh: human dual specificity phosphatase 1 inhibition; P28562; recombinant MKP-1, OMFP hydrolysis fluorescence; inhibition, %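 (compounds tested at a single concentration somewhere between 10 and 100 µM)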; actives 0.15% (n = 65,000); AID 374;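 active = inhibition above about 50%, limit read from the data; inconclusive = inhibition over screen mean plus 3 SD, below that limit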;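 also: 0% = DMSO max control wells and 100% = wells with enzyme stopped by NaOH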
Cdc25B block: inhibitors of human Cdc25B phosphatase; P30305; recombinant Cdc25B, OMFP fluorescence Ex485/Em525; inhibition, %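 (compounds tested at 10 µM final in the well)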; actives 0.1% (n = 65,000); AID 368; in the data active = inhibition above about 50%
Target sequence (P30305 whole entry, looked up): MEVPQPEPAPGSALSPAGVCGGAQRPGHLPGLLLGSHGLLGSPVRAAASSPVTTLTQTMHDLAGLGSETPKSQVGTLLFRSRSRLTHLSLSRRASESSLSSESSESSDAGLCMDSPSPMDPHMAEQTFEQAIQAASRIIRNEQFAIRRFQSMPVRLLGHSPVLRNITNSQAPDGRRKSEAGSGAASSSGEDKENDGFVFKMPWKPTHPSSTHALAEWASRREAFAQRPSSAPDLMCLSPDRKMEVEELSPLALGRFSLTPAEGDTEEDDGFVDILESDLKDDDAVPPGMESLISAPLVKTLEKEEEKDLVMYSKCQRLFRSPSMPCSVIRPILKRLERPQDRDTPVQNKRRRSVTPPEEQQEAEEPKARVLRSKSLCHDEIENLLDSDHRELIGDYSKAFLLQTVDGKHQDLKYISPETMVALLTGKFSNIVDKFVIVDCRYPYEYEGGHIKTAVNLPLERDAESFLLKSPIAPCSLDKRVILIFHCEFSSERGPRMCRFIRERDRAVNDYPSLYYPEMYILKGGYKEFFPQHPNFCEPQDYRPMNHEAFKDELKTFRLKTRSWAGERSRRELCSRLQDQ
Her2 expr inh: Her2 kinase expression inhibition; P04626; SKBR-3 HER2 protein level, AlphaScreen, 18-24 h; stronger effect = lower value; HER2 level % of control, % at 10 µM; actives 0.69% (n = 65,000); AID 645;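 active = HER2 level under 5% of the carrier-only control; inconclusive = no clear call, values can overlap the other calls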;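 also: 100% = DMSO carrier and 0% = 500 nM PU-H71 HSP90 inhibitor; lower value means stronger loss of Her2 protein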
Autofluor 339: intrinsic fluorescence of library compounds, ex339/em460 – biochemical, MLSMR library, data from DPM-DC assay, artefact control, profiling panel; compound autofluorescence, ex339/em460 nm, NADH buffer; stronger effect = higher value; 1 = no-compound wells, NADH background; fluorescence fold increase at 10 µM; actives 5.5% (n = 65,000);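 active = at 10 µM, mean starting fluorescence two-fold or more over control wells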;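 also: signal is the first read of a kinetic run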
Hsp90 block: displaces geldanamycin probe from tumor Hsp90 | P07900 | actives 0.35% (n = 64,000) | NCI-N417 lysate Hsp90, Cy3B-geldanamycin FP displacement | inhibition, % at 30 µM | AID 429;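 active = inhibition above 50%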;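 also: 0% = tracer plus lysate wells and 100% = tracer alone without lysate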
Numbers without * were called inactive; ? = inconclusive. This is a subset (hit frequency here may not be typical).

Every second line gives: Abs 340nm	ROCK2 inh	PKA inh	DUSP1 inh	Cdc25B block	Her2 expr inh	Autofluor 339	Hsp90 block
1: COCCCN1C(=O)c2[nH]nc(-c3cc(C)cc(C)c3O)c2C1c1ccc(O)c(OC)c1 (stereo not given)
 : 0.95	2	3	-2	-4	112	1	-1
2: Cc1nc2ccccc2c(=O)n1NC(=O)C1CCCCC1
 : 1	6	13	3	-9	128	1.1	1
3: CCOC(=O)N1CCN(C(=O)c2ccc3c(=O)n(Cc4ccccc4)c(=S)[nH]c3c2)CC1
 : 1	-1	4	?	-7	126	1.1	-5
4: CC(C)(C)C(=O)NC1CCN(S(=O)(=O)c2ccccc2F)CC1
 : 1	5	5	-2	9	80	1.1	-3
5: O=C(O)c1ccccc1C(=O)OCCCCOC(=O)c1ccccc1C(=O)O
 : 1	2	-1	-7	-10	67	1.1	-2
6: COc1ccc(C2=NOC(C(=O)Nc3cc(Br)ccc3O)C2)cc1OC (stereo not given)
 : 0.97	1	4	15	10	141	0.98	-1
7: O=C(CN1CCN(C(=O)c2ccccc2)CC1)Nc1ncc(Br)cc1Br
 : 0.99	0	-1	5	2	98	1	-12
8: CCN1CCN(c2c(Cl)cccc2NC(=O)c2ccc3c(c2)OCCO3)CC1
 : 0.99	2	4	-20	-7	93	1.1	-7
9: CCc1sc(C(=O)Nc2ccsc2C(=O)OC)cc1Br
 : 1	7	6	-3	-5	87	1.7	-5
10: Cc1cc(C)c(NC(=O)CS(=O)CC(=O)N2CCN(c3ccc(F)cc3)CC2)c(C)c1 (stereo not given)
 : 1	6	11	11	3	93	1	6
11: CCc1ccc(-n2c(SCC(=O)Nc3cc(C)[nH]n3)nc3[nH]ncc3c2=O)cc1
 : 1	1	1	33	15	71	1.2	2
12: CCOC(=O)c1cnc(SCC(=O)c2ccccc2)nc1N
 : 1.1	2	3	-2	-6	92	1.1	-1
13: COC(=O)c1ccsc1NC(=O)CN1CCN(c2ccc(F)cc2)CC1
 : 1	2	8	26	-7	100	1.1	-4
14: COc1cccc(C2=NOC(C(=O)N3CCc4ccccc4C3)C2)c1 (stereo not given)
 : 0.99	6	7	-2	-18	90	1	-4
15: CCCSc1nc(N2CCCC2)c2c(c1C#N)CC(C)(C)OC2
 : 1.1	0	-2	-10	-28	120	1.2	0
16: CCOc1ccc(C(C)=O)cc1Cn1nc(C(=O)O)c2ccccc2c1=O
 : 1	0	2	33	-5	89	1.1	-5
17: CCOc1ncccc1C(=O)Nc1ccc(Cl)cc1
 : 0.97	6	10	-8	-8	106	0.99	-3
18: O=C(c1ccc2c(=O)n(CC3CCCO3)c(=S)[nH]c2c1)N1CCN(c2ccccc2)CC1 (stereo not given)
 : 1	2	0	11	0	102	1.1	-1
19: COc1ccc(C(=O)N2CCN=C2SCc2cccnc2)cc1OC
 : 1	4	-2	2	-13	79	1.1	-2
20: COC(=O)c1sccc1NC(=O)c1ccc(Br)o1
 : 1.1	-5	-6	11	3	9	1.1	-3
21: CCOC(=O)c1cc(-c2ccc(C)cc2)n(CCC(=O)NCCN(C)C)c1C
 : 1	7	6	4	-6	89	1.1	-3
22: COC(=O)c1cc(Br)c(=O)n(CCN(C(C)C)C(C)C)c1
 : 1	0	0	-5	2	96	1.1	-7
23: COC(=O)c1cc(Br)c(=O)n(Cc2ccc(C(=O)O)cc2)c1
 : 1	0	4	-11	7	93	1.1	-9
24: Cc1ccc(C)c(N2CCN(C(=O)c3ccc(Cn4c(=O)[nH]c5ccccc5c4=O)cc3)CC2)c1
 : 1	4	5	28	-11	49	1	-3
25: COc1ccc(-c2c3c(=O)n(C)c(=O)n(C)c3cn2Cc2ccccn2)cc1
 : 1.1	2	4	-3	-5	88	1.3	-5
26: CCOC(=O)C1=C(O)CSC1=Nc1cccc(Cl)c1
 : 1	0	6	4	-3	116	1.1	-4
27: COC(=O)c1ccccc1S(=O)(=O)NC(=O)c1ccccc1
 : 0.98	7	8	-4	4	97	1	4
28: CC1(C)Cc2c(C#N)c(SCc3ccccc3)nc(N3CCOCC3)c2CO1
 : 1.1	-1	-7	9	-11	98	1.1	-1
29: CNC(=O)c1ccsc1NC(=O)c1ccccc1
 : 1	1	4	-5	-8	95	1.1	-4
30: COC(=O)c1cc(Br)c(=O)n(CCc2ccc(F)cc2)c1
 : 0.97	7	3	-9	12	103	1	-3
31: COc1ccc(-c2c3c(=O)n(C)c(=O)n(C)c3cn2C2CCCCC2)cc1
 : 1	11	8	7	-12	63	1.6	-3
32: CC1NC(=O)NC1CCCCC(=O)O (stereo not given)
 : 1	0	6	3	-15	79	1.1	-2
33: O=C(OCC(=O)N1CCc2ccccc21)C1=COCCO1
 : 1	4	4	-10	-5	118	1.1	-4
34: COc1ccc(C2=NOC(C(=O)Nc3c(C)n(C)n(-c4ccccc4)c3=O)C2)cc1OC (stereo not given)
 : 1	-4	3	4	-10	92	1.1	-1
35: C=CCn1c(SCC(=O)N2CCN(C(=O)c3ccco3)CC2)nc2sc(CC)cc2c1=O
 : 1	6	7	5	0	92	1.1	-1
36: COC(=O)Cn1cc(C(=O)OC)cc(Br)c1=O
 : 1.1	6	6	-16	13	128	1.1	8
37: CCOc1cc(C2NC(=O)N(C)C(C)=C2C(=O)OC)cc(Br)c1O (stereo not given)
 : 0.99	4	4	4	-10	50	1	0
38: NC(=O)c1ccsc1NC(=O)CSc1nc2ccccc2c(=O)n1CCCO
 : 1	3	4	27	6	107	1.1	-5
39: Cc1cc(C)n2nc(S(=O)(=O)NC3CCCCC3)nc2n1
 : 1	1	-5	1	-7	78	1	-1
40: CCOC(=O)c1oc2ccccc2c1NC(=O)CN1CCN(C)CC1
 : 1	7	-2	-14	4	82	1.2	0

Six compounds from above, limited to PKA inh, Cdc25B block and ROCK2 inh:
no.	structure	PKA inh	Cdc25B block	ROCK2 inh
22	COC(=O)c1cc(Br)c(=O)n(CCN(C(C)C)C(C)C)c1	0	2	0
29	CNC(=O)c1ccsc1NC(=O)c1ccccc1	4	-8	1
16	CCOc1ccc(C(C)=O)cc1Cn1nc(C(=O)O)c2ccccc2c1=O	2	-5	0
39	Cc1cc(C)n2nc(S(=O)(=O)NC3CCCCC3)nc2n1	-5	-7	1
1	COCCCN1C(=O)c2[nH]nc(-c3cc(C)cc(C)c3O)c2C1c1ccc(O)c(OC)c1 (stereo not given)	3	-4	2
4	CC(C)(C)C(=O)NC1CCN(S(=O)(=O)c2ccccc2F)CC1	5	9	5

Next section.
Every second line gives: Abs 340nm	ROCK2 inh	PKA inh	DUSP1 inh	Cdc25B block	Her2 expr inh	Autofluor 339	Hsp90 block
41: CCOc1ncccc1C(=O)Nc1ccc2c(C)cc(=O)oc2c1
 : 1	-1	-1	0	-24	102	2.2*	-2
42: O=C(CCc1nc2ccccc2[nH]c1=O)OCC(=O)N1CCc2ccccc21
 : 1	4	11	19	-11	113	1.8	-5
43: NC(=O)c1ccsc1NC(=O)C1CCCCC1
 : 1	2	-6	7	-4	69	1	2
44: CCOC(=O)c1cnc(SCC(=O)Nc2cc(OC)cc(OC)c2)nc1N
 : 0.99	2	-4	-6	3	76	1.1	2
45: Cc1cc(NC(=O)C2CC(c3cccc(Br)c3)=NO2)no1 (stereo not given)
 : 1	10	6	4	3	104	1.1	-2
46: CCSc1nnc2c(n1)[nH]c1c(C)cccc12
 : 1.1	0	-2	2	-2	83	1	0
47: NC(=O)c1ccc(-n2nnnc2Oc2ccccc2C(=O)N2CCOCC2)cc1
 : 1	3	2	13	-3	69	1.1	2
48: CC(C)c1nc(NCC2CCCO2)c(C#N)c2c1COC(C)(C)C2 (stereo not given)
 : 0.99	8	4	-10	10	64	2.4*	-4
49: O=C(CCCn1c(=S)[nH]c2ccccc2c1=O)NC1CCCC1
 : 0.98	4	9	8	-15	72	1	-4
50: O=C(Nc1ccccc1N1CCCC1)c1ccc(Br)o1
 : 1.1	6	11	-3	-12	77	1.1	-19
51: Cc1noc(C)c1CSc1nc2[nH]ncc2c(=O)n1-c1ccccc1
 : 1	4	-1	-1	-10	65	1	0
52: CN(C)S(=O)(=O)N(CC(=O)Nc1ccccc1C(F)(F)F)c1ccccc1
 : 1	4	6	8	2	94	1.1	-5
53: COC(=O)Nc1sccc1C(=O)Nc1sccc1C(=O)OC
 : 1.1	2	6	22	1	88	1.6	-11
54: Cc1cc(C)n(-c2ccc(C(=O)Nc3sccc3C(N)=O)cc2)n1
 : 1.1	6	-2	8	-8	104	1.4	-9
55: CCOC(=O)c1cnc(SCc2ccccc2)nc1N
 : 1	4	6	4	-17	64	1.1	-3
56: CCCCn1c(=S)[nH]c2ncccc2c1=O
 : 1	7	0	-3	-7	119	0.94	-6
57: N#CCSc1nc2cc(C(=O)N3CCCC3)ccc2c(=O)n1Cc1ccccc1
 : 1	2	1	31	-5	155	1.1	0
58: COC(=O)CSc1nc(N)c(C#N)c(C(C)C)c1C#N
 : 1.1	3	6	-10	12	111	1.3	0
59: CCOC(=O)c1cnc(SCC(=O)NCc2ccco2)nc1N
 : 1	2	3	-5	-10	87	1	0

Given as tab-separated lines: two of the compounds above
item	SMILES	Abs 340nm	ROCK2 inh	PKA inh	DUSP1 inh	Cdc25B block	Her2 expr inh	Autofluor 339	Hsp90 block
33	O=C(OCC(=O)N1CCc2ccccc21)C1=COCCO1	1	4	4	-10	-5	118	1.1	-4
34	COc1ccc(C2=NOC(C(=O)Nc3c(C)n(C)n(-c4ccccc4)c3=O)C2)cc1OC (stereo not given)	1	-4	3	4	-10	92	1.1	-1
